GIV-Gai inh: blocks GIV peptide binding to rat Galpha-i3. P08753. Galpha-i3/FITC-GIV peptide fluorescence polarization, 90 min; stronger effect = lower value; scaled: aluminum fluoride 0%, vehicle 100%. percent of control (FP), % (concentration not given with the values). 0.42% of 210,000 active. AID 1224905;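 active means replicate mean at 85% of control or lower, very high polarization wells dropped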;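 further: wells of about 15 µL received 100 nL stock; the first replicate is given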
Target sequence (P08753 whole entry, looked up): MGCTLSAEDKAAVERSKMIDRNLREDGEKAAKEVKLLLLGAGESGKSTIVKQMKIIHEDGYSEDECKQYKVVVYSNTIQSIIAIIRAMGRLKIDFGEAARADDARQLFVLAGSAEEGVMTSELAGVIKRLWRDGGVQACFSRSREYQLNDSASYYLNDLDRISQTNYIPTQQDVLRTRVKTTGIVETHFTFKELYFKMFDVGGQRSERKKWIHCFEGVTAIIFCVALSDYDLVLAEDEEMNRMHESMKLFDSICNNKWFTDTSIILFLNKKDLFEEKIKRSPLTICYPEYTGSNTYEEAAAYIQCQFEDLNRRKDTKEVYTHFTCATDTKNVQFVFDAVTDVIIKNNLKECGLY
Sa growth inh: blocks Staphylococcus aureus growth | S. aureus RN4220 growth, OD600, 20 h, 42 °C; stronger effect = lower value | relative growth, % (concentration not given with the values) | 0.53% of 170,000 active;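 active means growth at 42 °C up to 50% and 20 or more points under that at 30 °C, or under 10% at both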;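 further: 300 nL library stock went into each well; scaled to the means of positive and negative controls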
HCMV NEC inh: disrupts HCMV UL50-UL53 complex binding. HTRF UL50-UL53 interaction, normalized percent inhibition. inhibition, % (no concentration beside the values). 0.15% of 190,000 active. AID 1918969;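 active means both replicates at 50% or more, plus weaker picks with an unusually low signal ratio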;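 further: stock transfer was 100 nL into about 20 µL; 0% = negative control wells and 100% = wells with untagged competitor protein; inactives centre near -12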
Sa growth inh second temp: recorded beside Sa growth inh, whose call it bears; relative growth, %; measured here: growth at 30 °C;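 optical density after 20 h as mean of two plates; 100% = untreated growth and lower means inhibition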
The depositor's hits bear a star; x = not tested or not shown; & = joins results of further samples.

Below each compound – HCMV NEC inh	Sa growth inh second temp	GIV-Gai inh	Sa growth inh
CC(C)(C)c1ccc(C(=O)NC(=S)Nn2cnnc2)cc1
→ 2	99	x	90
Cc1ccc(C(=O)c2sc(Nc3ccccc3)nc2N)c(C)c1
→ 6	x	103	x
CC1CN(c2nc3c(Cl)cc(Cl)cc3s2)CC(C)O1 (stereo not drawn)
→ -2	88	96	81
O=C(Cn1c2ccccc2c(=O)c2ccccc21)Nc1ccc(C(F)(F)F)cc1
→ -20	x	115	x
O=C(O)COCC(=O)N1CCC(n2cccc2)CC1
→ -16	89	96	95
O=C(Cc1cccc2ccccc12)NCCOc1ccccc1
→ -21	89	x	124
O=C(CS(=O)(=O)c1cn(Cc2ccc(Cl)cc2)c2ccccc12)N1CCCCC1
→ -11	95	109	103
Oc1cccc(Nc2nc(-c3ccccc3)nc3ccccc23)c1
→ -5	65	108	95
S=C(N=P(c1ccccc1)(N1CCOCC1)N1CCOCC1)NCc1cn2ccsc2n1
→ -20	83	x	113
CCOC(=O)C1=C(C)N=c2s/c(=C3\C(=O)N(OC(C)=O)c4ccccc43)c(=O)n2C1c1ccc(C)cc1 (stereo not drawn)
→ -2	x	106	x
CCC1=C(c2ccc(C)cc2)S(=O)(=O)NC1=NCC(=O)NC1CCN(Cc2ccccc2)CC1
→ -52	x	147	x
COc1ccc(C2=NN(C(=O)CCC(=O)O)C(c3cccc(OC)c3OC)C2)cc1 (stereo not drawn)
→ -32	x	104	x
CCOc1ccc(NC(=O)c2nnn(-c3ccc4noc(-c5ccccc5)c4c3)c2C)cc1
→ -23	x	98	x
COC(CNS(=O)(=O)c1cccc2cccnc12)OC
→ x	93	100	86
CC(C)(O)c1ccc(-c2ccccc2)cc1
→ -19	65	95	93
Cc1ccc(Nc2ncccc2C(=O)NC2CCCCC2)cc1
→ -47	101	101	88
Cc1cccc(-c2noc(CN(C(=O)COc3ccc(Br)cc3C)C(C)C)n2)c1
→ -15	91	101	96
O=C(NCCN1CCNC1=O)c1ccc(OC(F)(F)F)cc1
→ -9	83	103	95
CCc1ccc(-c2ccc(=O)[nH]n2)cc1S(=O)(=O)N(C)C1CCCCC1
→ -2	x	106	x
CN1C(C(=O)NCc2ccccc2)=C(c2ccccc2)c2cc(Cl)ccc2S1(=O)=O
→ -16	x	100	x
COc1cccc(N2CC(NC(=O)CCCc3ccccc3)CC2=O)c1 (stereo not drawn)
→ x	86	94	135
O=C(O)Cc1ccc(OC(F)F)cc1
→ -28	91	x	95
Cn1c(SCC(=O)NCC2CCCO2)ncc(C(=O)Nc2ccc(F)cc2)c1=O (stereo not drawn)
→ -23	85	107	107
COc1ccc(/C=C/C(=O)Nc2ccccc2C(F)(F)F)cc1
→ -7	89	x	94
COc1ccc(S(=O)(=O)N2CCN(c3ccc(F)cc3)CC2)cc1-c1noc(C)n1
→ -4	91	99	90
CCCCN(CC)CCNC(=O)c1ccc(NC(=O)N2CCSc3nc(C)cc(C)c32)cc1
→ 2	x	102	x
CC1CCCCN1S(=O)(=O)c1ccc2c(c1)oc(=O)n2C (stereo not drawn)
→ x	87	99	91
CN(CC1CCCO1)S(=O)(=O)c1ccc(C(=O)N2CCOCC2)cc1 (stereo not drawn)
→ -14	92	99	95
Cc1cc(C(=O)N/N=C/N(C)C)nn1-c1c(Cl)cc(Cl)cc1Cl
→ -11	97	105	108
O=C(Nc1cccc(NC(=O)C2CC2)c1)C1CC1
→ 1	90	x	79
Cc1c(/C=C(\C#N)C(=O)Nc2cccc(Cl)c2)c2ccccc2n1Cc1ccccc1Cl
→ -2	104	125	100
CCC(C)N(Cc1cn(CC)c2ccccc12)C(=S)Nc1ccc(C)cc1 (stereo not drawn)
→ x	83	105	95
CCC(=O)c1cn(CC(=O)NCC2CCCO2)c2ccccc12 (stereo not drawn)
→ 7	90	104	101
Cc1nn(CC(=O)NCc2ccc3c(c2)OCO3)c(=O)c2c1sc1ccccc12
→ x	73	97	104
Cc1nc2c(C)cccc2c2c1COC2
→ 10	97	108	101
CC(C)Oc1ccc(C(CC(=O)O)C(C)C)cc1 (stereo not drawn)
→ -27	91	92	124
Cn1c(=NC(=O)c2cc(-c3ccccc3)nc3ccccc23)sc2cc(S(C)(=O)=O)ccc21
→ x	84	100	102
O=C(CCC(=O)N1CCc2cc(S(=O)(=O)NCCN3CCOCC3)ccc21)N1CCCCC1
→ -15	x	98	x
COc1ccc(/C=N/N=C(N)N)cc1
→ -61	64	104	79
CN1/C(=C(/O)c2ccccc2)C(=O)c2ccccc2S1(=O)=O
→ x	76	107	106
Cc1ccc(Cl)cc1N1CCN(C(=O)c2ccc3c(c2)N(Cc2ccc(F)cc2)CCS3)CC1
→ -2	97	106	106
COc1cc(Nc2nc3c(S(=O)(=O)c4ccccc4)nnn3c3ccc(Cl)cc23)cc(OC)c1
→ -1	94	98	74
COc1ccc(-c2cc(C3CC3)[nH]c(=S)c2C#N)cc1
→ -24	85	103	84
COc1ccccc1Oc1nc2c(c(=O)n(C)c(=O)n2C)n1Cc1cccc(Br)c1
→ -15	87	107	125
Cc1cc(C)cc(OCc2ccc(C(=O)Nc3ccccc3F)o2)c1
→ -28	87	102	99
COc1ccc(C2C3=C(CC(c4ccccc4)CC3=O)Nc3ccccc3N2C(=O)C(C)C)cc1OC (stereo not drawn)
→ -15	x	100	x
CCC(=O)N1CCc2cc(Br)cc(S(=O)(=O)CCC(=O)NCC3COc4ccccc4O3)c21 (stereo not drawn)
→ -18	76	97	91
CCCCCCNc1ccc(NC(=O)c2ccc(C3CCC(CCCCC)CC3)cc2)c2c1C(=O)c1ccccc1C2=O (stereo not drawn)
→ -2	x	106	x
COc1ccc(OC)c(CNC(=O)C2CCCN2S(=O)(=O)c2cc3c(cc2C)NC(=O)CO3)c1 (stereo not drawn)
→ 15	x	108	x
O=C(NC1CCCCC1)c1cnc2sccn2c1=O
→ -17	x	103	x
COc1ccc2ccccc2c1C=Nc1cccc(CO)c1
→ -40	95	x	117
Cn1nccc1NC(=O)CC1(CC(=O)O)CCCCC1
→ 1	99	109	105
O=C(COc1ccc2ccc(=O)oc2c1)NC1CC1
→ 0	96	x	100
COc1ccc(CNC(=O)c2cc3nc(-c4ccc(OC)cc4)cc(C(F)(F)F)n3n2)cc1
→ 10	x	107	x
O=c1oc2ccc3ccccc3c2cc1-c1nnc(-c2ccccc2Br)o1
→ -14	x	108	x
CCC(CC)c1nnc(NC(=O)c2c(-c3ccccc3)noc2C)s1
→ -31	66	99	83
N#Cc1c(N)nc(SCC(=O)c2ccc([N+](=O)[O-])cc2)c(C#N)c1Cc1ccccc1
→ -5	x	104	x
CC(=O)N1CCCc2cc(S(=O)(=O)N3CCC(C(=O)NCc4ccc(C)cc4)CC3)ccc21
→ x	83	98	107
CCCOc1cccc(C2c3c(oc4ccccc4c3=O)C(=O)N2c2nncs2)c1 (stereo not drawn)
→ -36	102	106	102
CCn1c(SC(C)C(N)=O)nnc1-c1cccs1 (stereo not drawn)
→ -7	102	x	101

Just Sa growth inh second temp and HCMV NEC inh (2 entries from above):
canonical_smiles,Sa growth inh second temp,HCMV NEC inh
Cc1ccc(Cl)cc1N1CCN(C(=O)c2ccc3c(c2)N(Cc2ccc(F)cc2)CCS3)CC1,97,-2
O=C(COc1ccc2ccc(=O)oc2c1)NC1CC1,96,0

A second format for 2 compounds above:
| Molecule | HCMV NEC inh | Sa growth inh second temp | GIV-Gai inh | Sa growth inh |
| --- | --- | --- | --- | --- |
| CN1C(C(=O)NCc2ccccc2)=C(c2ccccc2)c2cc(Cl)ccc2S1(=O)=O | -16 | x | 100 | x |
| CC1CCCCN1S(=O)(=O)c1ccc2c(c1)oc(=O)n2C (stereo not drawn) | x | 87 | 99 | 91 |

(further entries)
Below each compound – HCMV NEC inh	Sa growth inh second temp	GIV-Gai inh	Sa growth inh
Cc1ccc(S(=O)(=O)CCn2c(=O)oc3cccnc32)cc1
→ -22	84	105	97
Clc1ccc(-c2cnc3n2CCC3)cc1Cl
→ x	77	109	113
CCNC(=O)c1ccc2c(c1)nc1n2CCCCC1
→ x	92	99	86
CN1C(=O)CS(=O)c2ccc(C(=O)NC3CC3)cc21 (stereo not drawn)
→ x	85	99	100
COc1ccc(-c2nc3c4c(C)c(C)n(-c5ccccc5C)c4ncn3n2)cc1OC
→ -5	x	106	x
O=C(NCCc1csc(-c2cccnc2)n1)c1cccc(Cl)c1
→ x	84	103	123
CC(=O)N1CCCC1c1nc2ccccc2n1Cc1cc(C)ccc1C (stereo not drawn)
→ -6	91	109	93
CC(C)(C)c1ccc(O)c(C(=O)Oc2ccccc2)c1
→ -17	78	x	69
O=C(c1ccccc1C(=O)N(c1ccccc1)c1ccccc1)N1CCCCC1
→ -6	85	x	88
Cc1ccc(C)c2[nH]c(=O)c(C(c3nnnn3Cc3ccccc3)N3CCN(C)CC3)cc12 (stereo not drawn)
→ -19	84	110	144
COc1ccc(S(=O)Cc2ccc(C(=O)NC(C)C)o2)cc1 (stereo not drawn)
→ -18	91	104	90
CCc1cccc(N2C(=O)N(Cc3c(F)cccc3Cl)c3ccccc3S2(=O)=O)c1
→ x	88	105	104
Cc1ccc(C(=O)OC2=C(C(=O)c3ccccc3)N(C)S(=O)(=O)c3ccccc32)cc1
→ -5	84	103&106	80
CCOc1ccc(NC(=O)CNC(=O)c2nn(-c3ccc(OC)c(OC)c3)c(=O)c3ccccc23)cc1
→ -88	82	101	90
Cc1oc(-c2cccc(Cl)c2)nc1CSc1nc2ccccc2n2c(C)nnc12
→ -24	x	96	x
O=C(O)Cc1ccc(NC2(c3ccccc3)C(=O)c3ccccc3C2=O)cc1
→ x	89	95	103
O=C(NCC1CCCO1)c1coc2nc3ccccc3nc12 (stereo not drawn)
→ -12	93	119	96
CCOC(=O)c1cnc2c(C)cccc2c1NCCc1ccc(OC)c(OC)c1
→ x	94	106	94
CCCOc1ccc(C2Oc3ccc(Br)cc3C3CC(c4ccc(Cl)cc4)=NN32)cc1 (stereo not drawn)
→ -13	x	106	x
CCOC(=O)c1[nH]c(COC(=O)C2COc3ccccc3O2)c(C(=O)OCC)c1C (stereo not drawn)
→ -3	77	x	102
CC1c2ccsc2CCN1S(=O)(=O)c1cccs1 (stereo not drawn)
→ 4	94	106	96
CC1C(=O)CCN(C2CC2)C1C (stereo not drawn)
→ -20	89	103	99
CNC1(c2nnnn2CCOC(=O)Nc2ccc(Cl)cc2)CCCC1
→ 2	70	105	107
COc1ccc(CN2C(=S)N(c3ccccc3)C(=O)C2CC(=O)Nc2ccccc2)cc1 (stereo not drawn)
→ x	67	97	116
CCNc1sc(S(C)(=O)=O)nc1S(=O)(=O)c1ccc(C)cc1
→ 6&-9	87&85	110&102	106&100
Cc1cc(C)n(-c2nc3cc(Cl)ccc3nc2Nc2ccc(CC(=O)O)cc2)n1
→ -51	100	108	102
Cc1ccc(-c2cc(C(F)F)n3ncc(C(=O)Nc4cn(C)nc4C)c3n2)cc1
→ -14	72	101	107
CN(C1CCCCC1)S(=O)(=O)c1ccccc1N=Cc1c(O)[nH]c(=O)[nH]c1=O
→ -10	88	x	87
CC(C)N(C)C1CCN(C(=S)Nc2ccccc2Cl)CC1
→ 3	95	104	90
CCOc1ccc(-c2cc3ccc(N(CC)CC)cc3oc2=O)cc1
→ -4	88	x	102
CC1c2[nH]c3ccccc3c2CCN1S(C)(=O)=O (stereo not drawn)
→ 1	95	105	112
COc1ccc(S(=O)(=O)N2CCCCCC2)cc1C(=O)N(Cc1nnc(-c2ccccc2Cl)o1)C(C)C
→ -13	74	x	84
Cc1ccc2nc(-c3ccsc3)c(Nc3ccc(Cl)cc3)n2c1
→ -2	93	101	100
CCOC(=O)Cn1c(=O)n(-c2ccc(F)cc2)c2nc(C)nc(C(N)=O)c21
→ -29	x	105	x
CC(=O)N[C@@H](Cc1c[nH]c2ccccc12)C(=O)NC1CC1
→ 6	107	x	98
COc1ccc(C(O)Cc2nc3ccccc3n2C)cc1OC (stereo not drawn)
→ -18	88	98	92
Cc1ccc2[nH]c(=O)c(-c3noc(-c4ccccc4)n3)cc2c1
→ -11	90	102	104
COc1ccccc1-n1cnnc1SCC(=O)N(C)CC(=O)Nc1ccccc1Cl
→ 1	91	x	90
O=C(COc1ccccc1O)Nc1cccc(Br)c1
→ -33	88	x	98
Cc1ccsc1/C=C1/CC/C(=C\c2sccc2C)C1=O
→ -9	83	131	99
COc1cccc(-n2cnnc2SC(C#N)Cc2ccc(C)cc2)c1 (stereo not drawn)
→ 0	97	x	96
CC(C)NC(=O)CCCCn1c(=O)c2ccccc2n(CC(=O)NCc2ccccc2)c1=O
→ -17	x	106	x
N#Cc1c(NC(=O)CCCCl)sc2c1CCCC2
→ -9	93	x	112
Cn1c(SCC(=O)c2ccc(Cl)cc2)nnc1C(F)(F)F
→ 3	102	98	92
Cc1ccc(CS(=O)Cc2ccc(C(=O)NC3CCCc4ccccc43)o2)cc1 (stereo not drawn)
→ -3	88	103	99

4 entries picked at random from the list so far:
Below each compound – HCMV NEC inh	Sa growth inh second temp	GIV-Gai inh	Sa growth inh
COc1cccc(-n2cnnc2SC(C#N)Cc2ccc(C)cc2)c1 (stereo not drawn)
→ 0	97	x	96
CC(C)NC(=O)CCCCn1c(=O)c2ccccc2n(CC(=O)NCc2ccccc2)c1=O
→ -17	x	106	x
Cn1c(SCC(=O)c2ccc(Cl)cc2)nnc1C(F)(F)F
→ 3	102	98	92
COc1ccccc1-n1cnnc1SCC(=O)N(C)CC(=O)Nc1ccccc1Cl
→ 1	91	x	90

High-throughput results from PubChem.

This is a random part of the collection; overall some 0.8% were active at least once.
